Compound activity (PubChem)
Mtb H37Rv – M. tuberculosis H37Rv growth inhibitors, H37Rv strain (AID 1626); actives 0.95% (n = 220,000); inhibition, % at 10 µM, or IC50 in µM where a hit was titrated; M. tuberculosis H37Rv growth inhibition; higher % means a stronger effect;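 active means confirmed in a dose series; inconclusive means inhibition above 80% but not taken into the dose series; inactive means below 80% or under 30% at every dose of the series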;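 further: bacteria incubated seven days before Alamar blue readout; 0% = bacteria only wells and 100% = bacteria with antibiotic wells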
YopH inh – inhibitors of Yersinia enterocolitica YopH tyrosine phosphatase. actives 0.16% (n = 140,000). inhibition, %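 (about 10 µM by stock and volumes)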. fluorescence Ex485/Em525;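 active means inhibition of 50% or more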;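 further: controls were vehicle for no effect and minimum signal wells for full effect; inactives centre near -20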
RecA splice inh – blocks M. tuberculosis RecA intein splicing. cell-free RecA intein splicing, fluorescence. inhibition, %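 (about 9 µM by stock and volumes)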. actives 0.75% (n = 290,000). AID 2221; in the data active means inhibition above about 30%; inconclusive means no clear call, values can overlap the other calls;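 further: 0% = vehicle wells and 100% = reference inhibitor control wells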
Target sequence (P9WHJ3 whole entry, looked up, canonical isoform): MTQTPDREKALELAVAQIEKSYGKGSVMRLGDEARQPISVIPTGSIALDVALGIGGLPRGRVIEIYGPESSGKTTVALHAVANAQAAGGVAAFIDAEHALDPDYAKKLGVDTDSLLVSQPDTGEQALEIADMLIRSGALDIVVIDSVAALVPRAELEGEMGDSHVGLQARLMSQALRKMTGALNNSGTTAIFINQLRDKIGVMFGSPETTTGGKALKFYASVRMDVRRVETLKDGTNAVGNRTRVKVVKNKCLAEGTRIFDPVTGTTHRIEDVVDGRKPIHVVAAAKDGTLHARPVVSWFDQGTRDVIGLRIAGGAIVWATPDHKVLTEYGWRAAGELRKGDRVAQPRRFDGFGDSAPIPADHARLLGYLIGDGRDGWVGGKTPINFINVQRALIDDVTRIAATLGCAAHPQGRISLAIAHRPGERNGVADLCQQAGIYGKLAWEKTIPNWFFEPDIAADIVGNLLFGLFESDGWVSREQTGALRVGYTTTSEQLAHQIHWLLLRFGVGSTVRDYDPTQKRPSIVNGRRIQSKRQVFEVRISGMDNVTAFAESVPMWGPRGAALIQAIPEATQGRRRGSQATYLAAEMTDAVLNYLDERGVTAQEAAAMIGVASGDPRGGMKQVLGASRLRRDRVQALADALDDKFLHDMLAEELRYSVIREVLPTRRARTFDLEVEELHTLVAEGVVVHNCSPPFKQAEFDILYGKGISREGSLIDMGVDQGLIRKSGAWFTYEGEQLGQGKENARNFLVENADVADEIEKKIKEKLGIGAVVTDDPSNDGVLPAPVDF
Mtb bLac sens – beta-lactam sensitization of Mtb H37Rv. M. tuberculosis H37Rv growth with meropenem, percent inhibition; hits of this screen are not shown here. inhibition, % at 25 µM. AID 434955. actives 0.27% (n = 330,000);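 active means about 74% or more and at least 40 points above the plate without the antibiotic, then above 30% in a dose series; inconclusive means first-round hits that could not be retested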;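 further: growth measured after seven days incubation then overnight dye step; 0% = bacteria only wells and 100% = bacteria with antibiotic; twin plates without the antibiotic show which effects depend on it; some results filed as inactive read as strong as hits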
Arbovirus inh – blocks arbovirus infection; arbovirus infection cell-based antiviral screen; inhibition, % at 10 µM; actives 0.37% (n = 200,000);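 active means inhibition from about 30%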;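 further: bluetongue infection of BSR cells; cell survival read as ATP light after 72 h; 0% = infected wells without compound and 100% = uninfected wells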
Arbovirus inh repeat – further read-out of Arbovirus inh, marked with its call; inhibition, %; measured here: 10K subset replicate screen; many hits read low in the repeat;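 first of two repeat runs on a subset; 0% = infected and 100% = uninfected wells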
* marks the source's active call; other numbers are inactive results; ? = inconclusive; . = no result given.

SMILES	Mtb H37Rv	YopH inh	RecA splice inh	Mtb bLac sens	Arbovirus inh	others
Clc1ccc(C2=CSC3=NCCN23)cc1Cl	8%	-41	-0.1	44	-23
O=C(COc1ccc(Br)cc1Br)NC(=S)N1CCCc2ccccc21	-10%	-13	6.3	-6	-2
COc1ccc(C(=O)Nc2ccccc2C(=O)NC(Cc2ccc(O)cc2)C(=O)NNC(=O)c2ccccc2Cl)cc1 (stereo not drawn)	3%	-12	4.5	6	-4
O=C(CCc1nc2ccccc2c(=O)[nH]1)Nc1ccc(Cl)c(Cl)c1	-1%	-12	1.7	14	7
O=C(Nc1ccc2c(c1)OCCO2)c1cccc(Br)c1	.	.	2.1	6	.
O=C(CCCCCN1C(=O)c2ccccc2C1=O)Nc1ccccc1F	.	.	-2.4	2	.
N#Cc1ccc(CSc2ncnc3c2cnn3Cc2ccccc2)cc1	12%	-28	0.6	10	-12
CC1=NNC(=O)C1CC(=O)N/N=C/c1cccs1 (stereo not drawn)	1%	.	1.1	4	.
O=C(NCc1ccco1)C(c1cccnc1)N(C(=O)Cn1nnc2ccccc21)c1ccc(F)cc1 (stereo not drawn)	7%	-33	.	-3	8
CN(CCC#N)S(=O)(=O)c1ccc2c(c1)c(=O)n(C)c(=O)n2C	-1%	-8	-1.6	-9	1
CCCCCCn1c(N(CC)CC)nc2c1c(=O)[nH]c(=O)n2C	4%	-24	0.1	-3	-6
NC(=O)c1nc(-c2ccco2)nc2c1[nH]c(=O)n2-c1ccc(Cl)c(Cl)c1	-13%	.	-5.0	-10	.

Of the compounds above, two contain bromine:
SMILES	Mtb H37Rv	YopH inh	RecA splice inh	Mtb bLac sens	Arbovirus inh	others
O=C(COc1ccc(Br)cc1Br)NC(=S)N1CCCc2ccccc21	-10%	-13	6.3	-6	-2
O=C(Nc1ccc2c(c1)OCCO2)c1cccc(Br)c1	.	.	2.1	6	.

The listing picks up, starting two compounds before the break.
SMILES	Mtb H37Rv	YopH inh	RecA splice inh	Mtb bLac sens	Arbovirus inh	others
CCCCCCn1c(N(CC)CC)nc2c1c(=O)[nH]c(=O)n2C	4%	-24	0.1	-3	-6
NC(=O)c1nc(-c2ccco2)nc2c1[nH]c(=O)n2-c1ccc(Cl)c(Cl)c1	-13%	.	-5.0	-10	.
Clc1ccc(CN2CCNCC2)cc1	.	.	-0.7	-6	.
Cc1cc(C)c(S(=O)(=O)NCC2CCC(C(=O)NCc3ccccn3)CC2)c(C)c1 (stereo not drawn)	6%	.	1.1	-3	-9
CC(C)c1ccc(-c2nn(-c3ccccc3)cc2C(=O)NCC2CCCO2)cc1 (stereo not drawn)	.	.	0.9	6	.
CC(=O)c1cccc(NC2c3ncccc3C(=O)N2Cc2ccco2)c1 (stereo not drawn)	2%	-41	0.0	9	16
CC1CC(=O)c2cn3c(nc2C1)nc1ccccc13 (stereo not drawn)	-10%	-14	.	-6	13
Cc1cc(C)nc(SCc2cc(=O)c(OC(=O)c3ccc(S(=O)(=O)N(C)C)cc3)co2)n1	-5%	-24	11	4	1
Fc1ccc(-c2nc3ccccc3c3nc4ccccc4n23)cc1	2%	-17	1.0	-3	-1
CCCCn1c(SCC(=O)Nc2nnc(C)s2)nnc1-c1ccncc1	-6%	.	2.3	-8	-3
CCOC(=O)c1ccc(NC(=O)NCc2ccn(CC)n2)cc1	2%	-22	.	13	0
CC1CCN(c2ccccc2NC(=O)c2ccc(F)cc2)CC1	11%	-1	14	47	-7
Cc1nc(NC(N)=S)sc1C(=O)Nc1ccccc1	-4%	-10	0.4	1	-7
CNc1nc(-c2ccc(OC)cc2)c(-c2ccc(OC)cc2)s1	6%	.	5.0	2	-6

As a short view, part of the list above:
SMILES	Mtb H37Rv	YopH inh	RecA splice inh	Mtb bLac sens	Arbovirus inh	others
CCOC(=O)c1ccc(NC(=O)NCc2ccn(CC)n2)cc1	2%	-22	.	13	0
CC1CCN(c2ccccc2NC(=O)c2ccc(F)cc2)CC1	11%	-1	14	47	-7
Cc1nc(NC(N)=S)sc1C(=O)Nc1ccccc1	-4%	-10	0.4	1	-7
CNc1nc(-c2ccc(OC)cc2)c(-c2ccc(OC)cc2)s1	6%	.	5.0	2	-6

Other structures follow.
SMILES	Mtb H37Rv	YopH inh	RecA splice inh	Mtb bLac sens	Arbovirus inh	others
O=C(N/N=C\c1cccc([N+](=O)[O-])c1O)C1COc2ccccc2O1 (stereo not drawn)	0%	-20	-1.5	1	-17
COc1ccc(-c2nnc3sc(-c4ccccc4OC)nn23)cc1	3%	.	.	8	.
Cc1cc2nc(-c3cccnc3SCC(=O)NC3CC3)[nH]c2cc1C	5%	.	-0.5	-2	-3
Cc1c(/C=N/NC(=O)c2cccnc2)c2ccccc2n1Cc1ccccc1	1%	.	1.7	5	3
CC(=NCCCN(C)C)C1=C(O)c2ccccc2C1=O	5%	-30	-1.0	48	13
C1CCC2(CC1)C1=C(CCCC1)Nc1nnnn12	-5%	-9	-0.8	1	-1	Arbovirus inh repeat=-3
NS(=O)(=O)CCCc1ccccc1	.	.	3.4	-4	.
CCCCn1c(=O)nc2n(-c3ccccc3)c3ccccc3cc-2c1=O	-4%	-39	-43	-16	18
CCC(C)[C@@H](N)C(=O)N/N=C/c1cccc2nccnc12 (stereo partly drawn)	1%	.	0.9	-8	.
COc1ccc(CN(C(=O)c2ccc(C)cc2)c2cccc(N)c2)cc1	.	.	11	-6	.
CCCC(=O)Nc1nnc(SCC(=O)Nc2nc(C)cs2)s1	.	.	-0.7	-10	.
Cc1cccc(NCC(=O)c2c(N)n(C)c(=O)n(C)c2=O)c1C	-2%	.	5.5	0	-2
Cc1cc(=O)n2c(n1)NC(=NCc1ccccc1)NC2c1ccccc1 (stereo not drawn)	-4%	.	3.7	-1	.
CCN(CC)S(=O)(=O)c1ccc(C(C)NC(=O)Cc2c[nH]c3ccccc23)cc1 (stereo not drawn)	.	.	4.1	-8	.
Cn1c(=O)c(=O)n(C)c2cc(S(=O)(=O)N3CCN(c4ccccc4F)CC3)ccc21	-4%	-24	-1.1	7	-7
CCn1c(SCC(=O)N(C)CC(=O)Nc2cccc(OC)c2)nnc1-c1ccco1	.	.	0.3	-4	.
C[C@@H](CC#N)CN1CC[C@H](C(C)(C)C)CCC1=O	.	.	0.3	-4	.
O=C(Nc1nncs1)c1cccc(S(=O)(=O)N2CCOCC2)c1	-7%	-23	1.8	1	-1
O=C(CSc1ccccc1)Nc1ccc(S(=O)(=O)NCC2CCCO2)cc1 (stereo not drawn)	1%	-18	2.9	-2	-3
O=S(=O)(CC(O)COc1ccccc1Cl)c1ccccc1 (stereo not drawn)	-1%	5	2.3	-1	13
COC(=O)c1c(NC(=O)CN2CCN(c3ccccc3OC)CC2)c2cc(C)ccc2n1C	-5%	-47	1.3	2	13
Cc1ccc(-c2noc(CSc3nnc(-c4ccccc4)n3C)n2)cc1	-2%	2	6.2	-3	7
CC(C)Cc1ccc(CN2CCCC(NC(=O)CCN3CCCO3)C2)cc1 (stereo not drawn)	.	.	-0.9	?	.
COc1ccc(Cl)cc1NC(=O)CSc1nnc(CNC(=O)c2cccs2)o1	.	.	-8.9	0	.
Cc1ccc(NC(=O)N2Cc3ccccc3CC2C(=O)NC(C)(C)C)cc1 (stereo not drawn)	2%	-15	-1.4	-6	1
COC(=O)c1ccc(/C=N/NC(=O)CNc2cccc(C)c2)cc1	1%	.	.	15	-8
COc1ccc(S(N)(=O)=O)cc1C(=O)N1CCCC1	1%	.	-89	-1	3
Cc1ccc(C)c(NC(=S)N2CCC(NC(=O)c3ccc(F)cc3)CC2)c1	.	.	1.2	-9	.
CCN1CCN(c2cc(N3CCCC3)c(F)cc2[N+](=O)[O-])CC1	6%	-7	2.1	8	-9
CC(=O)OC(C(=O)NC1CCCCC1)c1ccc(C#N)cc1 (stereo not drawn)	-4%	-49	.	-2	10
CCc1cccc(NC(=O)CN(C)S(=O)(=O)c2cccc3cccnc23)c1	-4%	.	-5.4	-14	.
O=C(Nc1cccc(C(=O)O)c1)/C(=C\C=C\c1ccccc1)NC(=O)c1ccccc1	6%	.	-5.5	4	-2
COc1ccc(/C=N/NC(=O)CNC(=O)/C=C/c2ccccc2OC)cc1	.	.	-5.2	-4	.
CCCn1nnnc1SCC(=O)N1CCCC1	-11%	-6	-2.3	-4	5
CCOC(=O)c1cc2c(ccn2C)n1CC(=O)N(Cc1ccccc1)c1ccc(F)cc1	14%	-4	5.6	9	-26
COCCn1c(SC)nnc1-c1c[nH]c2ccccc12	3%	.	1.9	-5	0

Structures shown so far that contain an NH in an aromatic ring, in the order listed:
SMILES	Mtb H37Rv	YopH inh	RecA splice inh	Mtb bLac sens	Arbovirus inh	others
O=C(CCc1nc2ccccc2c(=O)[nH]1)Nc1ccc(Cl)c(Cl)c1	-1%	-12	1.7	14	7
CCCCCCn1c(N(CC)CC)nc2c1c(=O)[nH]c(=O)n2C	4%	-24	0.1	-3	-6
NC(=O)c1nc(-c2ccco2)nc2c1[nH]c(=O)n2-c1ccc(Cl)c(Cl)c1	-13%	.	-5.0	-10	.
Cc1cc2nc(-c3cccnc3SCC(=O)NC3CC3)[nH]c2cc1C	5%	.	-0.5	-2	-3
CCN(CC)S(=O)(=O)c1ccc(C(C)NC(=O)Cc2c[nH]c3ccccc23)cc1 (stereo not drawn)	.	.	4.1	-8	.
COCCn1c(SC)nnc1-c1c[nH]c2ccccc12	3%	.	1.9	-5	0

Further compounds.
SMILES	Mtb H37Rv	YopH inh	RecA splice inh	Mtb bLac sens	Arbovirus inh	others
Cc1ccc(S(=O)(=O)N2CCN=C2c2ccccc2)cc1C	1%	-5	.	-13	-3
Cn1c(=O)c2nc(-c3ccc(Cl)cc3Cl)oc2c2ccccc21	9%	-19	-0.5	7	3	Arbovirus inh repeat=-1
Cc1ccc(/C=C2\SC(=S)N(CCCC(=O)Nc3ccc(O)cc3)C2=O)cc1	0%	.	7.4	21	.
O=C(Cn1cnc([N+](=O)[O-])c1)NC1CCCC1	-1%	-15	1.2	-5	-2
Cc1ccccc1C1C(C#N)=C2N=C(N)c3ccccc3N2C2=C1C(=O)CCC2 (stereo not drawn)	1%	.	2.2	1	.
S=c1[nH]nc(-c2ccc(Cl)cc2)n1CC1CCCO1 (stereo not drawn)	-5%	-15	-1.9	-9	-3
CCOc1cc(NC(=O)c2ccccn2)c(OCC)cc1NC(=O)c1cccc(C)c1	-4%	.	-11	3	-8
CNC(=S)N/N=C/c1c(C)nn(-c2ccccc2)c1Cl	3%	-6	5.2	-11	-5
CC1=CC(C)(C)N(C(=O)CSc2ncn[nH]2)c2ccc(C)cc21	-1%	-6	-0.2	11	7
CC1(C)Cc2c(sc(NC(=O)c3ccccc3)c2C(=O)O)CO1	2%	.	0.1	6	12
CCOc1cc2[nH]c(=O)n(CCCC(=O)NCc3ccco3)c(=O)c2cc1OCC	-4%	-10	-2.2	0	-3
COc1ccccc1-n1c(SCC(=O)O)nc2c(sc(=S)n2-c2ccccc2C)c1=O	.	.	-35	8	.
CC(C)CNS(=O)(=O)c1ccc(NC(=O)Cn2nc(-c3ccc(F)cc3)ccc2=O)cc1	7%	-43	-1.0	3	8
COc1ccc(CCC(=O)OCC(=O)Nc2c(C)nn(-c3ccccc3)c2C)cc1	.	.	-2.0	-1	.
COc1ccc(NC(=O)C(c2ccccc2)N(C)C(=O)c2cnccn2)cc1 (stereo not drawn)	-5%	-35	2.5	-5	-3	Arbovirus inh repeat=1
NC(=O)CC(NC(=O)Cc1cccc2ccccc12)c1ccc(NCc2cc(F)ccc2F)c([N+](=O)[O-])c1 (stereo not drawn)	-7%	.	-1.8	-2	.
O=C(O)c1cccc(NC(=O)C23CC4CC(C2)CC(n2cnc(Cl)n2)(C4)C3)c1	-14%	-19	0.6	-10	7
c1ccc2[nH]c(CSc3nnc(-c4ccncc4)o3)nc2c1	4%	-28	0.8	0	4
CCN1CCN(c2nc3c(C)cccn3c(=O)c2/C=C(\C#N)S(=O)(=O)c2ccccc2)CC1	8%	-9	-23	-12	2
Cc1cccc(C(=O)NNC(=O)c2cccc([N+](=O)[O-])c2)c1	-7%	.	-2.8	3	4
Cc1ccc(-c2ccc(=O)n(CC(=O)NCCN(CC(C)C)CC(C)C)n2)cc1	.	.	-5.1	0	.
CN(C)c1ccc(/C=N/NC(N)=S)cc1[N+](=O)[O-]	7%	.	-4.4	.	3
O=C(Cn1c2ccccc2c2nc3n(c(=O)c21)CCCS3)Nc1ccccc1	.	.	-2.7	0	.
C/C(CC(=O)Nc1ccc2c(c1)OCCO2)=N\NC(=O)c1ccc([N+](=O)[O-])cc1Cl	.	.	3.2	35	.
COC(=O)C1=C(C)N(c2ccc(C)cc2)/C(=C/c2cccs2)C1=O	-6%	-29	0.7	-3	3
N=c1n(CCN2CCCC2)c2ccccc2n1CC(O)c1ccco1 (stereo not drawn)	-2%	-28	-1.5	-2	-8

A portion of the library, so the mix of outcomes need not match the whole.
